# BJeLR lethal = BJeLR cell viability loss; BJeLR (HRASV12) viability, CellTiter-Glo ATP luminescence, 48 h; reference of the scale not given here; inhibition, % (no concentration beside the values); actives 0.17% (n = 300,000); AID 1554;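 active = replicate mean above 50%; inconclusive = above 50% but judged a plate artefact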;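 note: 50 nL library stock added to about 25 µL; numbers are from one replicate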
# ugtP null kill = kills S. aureus RN4220 lacking UgtP. actives 0.54% (n = 330,000). growth inhibition, % (no concentration beside the values). S. aureus RN4220 ugtP deletion, OD600 growth, 16 h; some inactives read as strong as hits. AID 1259309;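 active = z-score under -3 and OD600 up to 0.15 on both plates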;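 note: plate controls were untreated wells for no effect and antibiotic for full effect; wells of about 80 µL received 100 nL stock; the first replicate is given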
# Mtb hypoxia rep = reduces hypoxia-regulated biosensor signal in M. tuberculosis; M. tuberculosis hypoxia-regulated fluorescent reporter, fluorescence; fluorescence inhibition, % (no concentration beside the values); actives 0.1% (n = 300,000); AID 1159583;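 active = 35 to 45% if threefold the growth effect, above 45% if 1.5-fold the growth effect; inactive = the rest, general growth blockers included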;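 note: wells of about 50 µL received 100 nL stock; 0% = vehicle wells and 100% = reference inhibitor wells; whole bacteria with a GFP reporter of the hypoxia response; strong numbers were not always called active; many hits fall short of the cut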
# PrP UTR inh = inhibition of PrP 5' UTR reporter expression | cell-based PrP 5' UTR mRNA reporter, plate reader | inhibition, % (no concentration beside the values) | actives 0.35% (n = 340,000);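 active = every replicate at 50% or more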;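 note: 0 = median of the neutral control wells; tested in H4 reporter cells; numbers are from one replicate; inactives centre near -14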
# Sa RN4220 lethal = kills Staphylococcus aureus RN4220. S. aureus RN4220 growth, OD600, 16 h. inhibition, % (concentration not given with the values). actives 0.33% (n = 330,000). AID 1259311;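 active = z-score of -3 or lower and OD600 up to 0.18 on both plates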;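 note: plate controls were untreated cells for no effect and reference antibiotic for full effect; stock transfer was 100 nL into about 80 µL; one replicate is shown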
# Autofluor counter = counter-screen for toxin protease inhibitors: compound fluorescence | compound autofluorescence counterscreen, microsphere flow cytometry; hits give high values | fluorescence intensity (test concentration not listed) | actives 3.1% (n = 360,000) | AID 624483;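 active = at least 3 SD above the mean of all compounds, about 16000 in these data; inconclusive = too few beads counted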;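 note: 100 nL of 1 mM stock went into each well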
# Mtb hypoxia rep growth = further read-out of Mtb hypoxia rep, marked with its call; growth inhibition, %; measured here: M. tuberculosis growth (absorbance);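 0% = vehicle and 100% = reference antibiotic; read after six days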
# * hit, by the source's call; ? = inconclusive; . = no result given.
canonical_smiles,BJeLR lethal,ugtP null kill,Mtb hypoxia rep,Mtb hypoxia rep growth,PrP UTR inh,Sa RN4220 lethal,Autofluor counter
COc1ccc(-c2nnc(SC)o2)c(OC)c1,-7.7,4.3,-0.3,-2.4,-15.9,1.2,2140
O=c1nc2sc(=Cc3ccco3)c(=O)n2nc1Cc1ccc(F)cc1,.,3.2,5.4,7.6,.,4.1,.
COc1ccc(CC(=O)NCC2COc3ccccc3O2)cc1 (configuration not stated),-14.8,-0.5,3.7,4.7,-24.2,2.4,2567
Cc1ccccc1N1C(=O)c2cccc([N+](=O)[O-])c2C1=O,.,-6.3,-2.9,0.7,-23.0,1.8,4521
COc1ccc(C2C(C(=O)NCc3cccnc3)c3cc(OC)c(OC)cc3C(=O)N2C)cc1 (configuration not stated),1.9,0.6,8.9,10.2,2.8,3.3,8940
CCc1ccccc1N(CC(=O)N1CCCC1)S(C)(=O)=O,-5.5,2.1,-1.0,10.9,-15.0,2.3,3514
Cc1cc(=O)[nH]c(NN=Cc2c(C)nn(-c3ccccc3Cl)c2Cl)n1,.,9.3,-7.5,-3.1,.,18.4,.
CC1CN(CCCOc2ccccc2[N+](=O)[O-])CC(C)O1 (configuration not stated),3.3,12.9,2.9,2.8,-19.0,4.1,23581*
COc1cccc(OC)c1C(=O)OCCCOC(=O)c1c(OC)cccc1OC,-2.5,5.9,18.8,1.5,-19.3,5.5,6505
COc1ccc(CCN(C)c2ncnc3sccc23)cc1OC,6.8,11.3,5.2,11.2,-3.0,5.4,4418

# (further entries)
canonical_smiles,BJeLR lethal,ugtP null kill,Mtb hypoxia rep,Mtb hypoxia rep growth,PrP UTR inh,Sa RN4220 lethal,Autofluor counter
Cc1cc(C(=O)NCCc2ccc(Cl)cc2)c(C)o1,-5.4,-0.9,5.0,-6.3,-49.6,0.2,6483
CCN(CC(=O)Nc1ccccc1C(F)(F)F)C(=O)COc1cccc2c1OC(C)(C)C2,-12.9,8.9,0.9,-9.3,-17.6,1.3,4090
O=C(CCN1CCCC1)Nc1ccc(Br)cc1,2.6,3.0,.,.,-9.5,-2.1,4076
COc1ccc(-c2[nH]c(-c3ccccc3)nc2SCC(=O)NC2CCCC2)cc1,6.6,-2.3,-2.5,-2.0,-7.8,-3.6,6422
COc1ccccc1CN1C(=O)CN(C2CCCCCC2)C(=O)C1c1ccc(F)cc1 (configuration not stated),1.8,-13.8,3.7,9.5,-7.7,10.1,10613
C=CCNC(=S)NNC(=O)c1ccncc1,3.0,9.0,2.1,7.7,-14.7,0.1,4120
Cc1c(C(=O)N2CCC(C(N)=O)CC2)oc2ccc(Br)cc12,-7.7,5.8,6.1,9.8,-19.3,3.5,6026
CCc1ccccc1N(CC(=O)NC(C)(C)CC)C(=O)CCC(=O)Nc1nccs1,-2.9,0.5,17.3,6.1,-13.0,5.9,3798
Cc1cc(C)n2nc(C(=O)Nc3ccc4c(c3)OCCO4)nc2n1,.,5.2,23.1,3.4,-55.5,2.8,2822
CC1CCCCN1C(=O)c1ccccc1OC1CCN(S(C)(=O)=O)CC1 (configuration not stated),6.5,-4.5,1.7,-1.1,-4.4,-5.6,4012

# (next part)
canonical_smiles,BJeLR lethal,ugtP null kill,Mtb hypoxia rep,Mtb hypoxia rep growth,PrP UTR inh,Sa RN4220 lethal,Autofluor counter
Cc1cccc(C)c1NC(=O)CN(C)C(=O)c1ccc(-c2cccc(C(F)(F)F)c2)o1,5.3,10.5,0.2,-3.9,-8.8,2.5,3781
CC1COC(C)(CC(=O)NN2C(=O)c3ccccc3C2=O)O1 (configuration not stated),1.7,2.7,5.8,-1.0,-28.8,2.8,4411
Cc1ccc(NC(=O)Cc2ccc3c(c2)CCCC3)cc1C,-1.5,20.4,2.8,2.7,-18.7,-2.2,6091
O=C(Nn1cnc2ccccc2c1=O)c1ccc([N+](=O)[O-])cc1,10.4,6.0,11.0,3.6,-27.9,8.1,2197
COc1ccc(NC(=O)CN(C)C(=O)c2c(-c3c(F)cccc3Cl)noc2C)cc1,-2.5,-8.5,-1.0,-4.9,0.0,-0.6,.
Cc1cc(C)n2cc(CSc3nc4ccccc4s3)nc2n1,-9.0,6.5,3.8,-5.7,-81.1,3.2,2691
Cc1cc(C(=O)N/N=C/c2cccc([N+](=O)[O-])c2)c(C)o1,-7.3,.,.,.,-51.8,.,8453
O=C(Cn1c(=O)sc2ccccc21)OC(CCl)CCl,1.3,0.7,9.4,10.3,-15.7,2.8,3742
COc1ccc(-c2cn3cccc(C)c3n2)cc1Br,-11.6,-18.5,7.6,6.9,-56.7,5.5,7478
C[C@]12CC[C@H](O)CC1=C[C@H](O)C1C2CC[C@@]2(C)C1CC[C@@]2(O)C#Cc1ccc(CN)cc1 (some centres not stated),.,-2.7,5.7,3.4,-1.5,1.5,4063

# (next part)
canonical_smiles,BJeLR lethal,ugtP null kill,Mtb hypoxia rep,Mtb hypoxia rep growth,PrP UTR inh,Sa RN4220 lethal,Autofluor counter
COc1cccc(S(=O)(=O)NCc2ccc(C(=O)N3CCN(c4ccccc4)CC3)cc2)c1,-9.1,2.8,4.0,7.3,-0.9,1.0,5714
COC(=O)c1ccc(/C=C/C(=O)OCC(=O)Nc2sccc2C(N)=O)cc1,.,-17.2,0.0,-4.5,-19.4,6.6,3866
COc1ccc(OC)c(-c2nc(CN3CCN(C(=O)c4ccco4)CC3)c(C)o2)c1,0.1,0.6,0.7,2.9,-5.9,0.8,5406
O=C(N/N=C/c1c(O)n(-c2ccccc2)c(=S)[nH]c1=O)c1ccccc1,-4.1,-1.1,0.9,1.5,-31.1,-4.0,.
COc1ccc(NC(=O)C(=O)NCCN2CCN(C(=O)c3ccc(C(C)(C)C)cc3)CC2)cc1,-6.7,-3.8,-3.0,5.2,-4.7,-2.8,6011
CCC(C)Sc1nc2ccccc2c(=O)[nH]1 (configuration not stated),-7.7,-14.9,5.0,7.6,-17.3,7.4,3001
Cc1csc(NC(=O)Nc2cccc(Cl)c2)n1,-8.0,-39.3,11.5,10.6,-113.4,-4.0,3454
O=C(c1cc(F)ccc1F)C1CCCN(C(=O)CCc2cnccn2)C1 (configuration not stated),-6.0,-1.1,4.8,1.2,-15.6,6.7,2277
COc1ccc(S(=O)(=O)N(CC(=O)NCc2cccnc2)c2ccc(F)cc2)cc1OC,15.4,8.4,-0.2,-1.2,.,4.9,.
COc1cccc(NC(=O)CN(C)C(=O)CNC(=O)c2ccc3ccccc3c2)c1,-8.8,3.4,6.9,6.9,-40.9,4.4,?

# Next entries follow:
canonical_smiles,BJeLR lethal,ugtP null kill,Mtb hypoxia rep,Mtb hypoxia rep growth,PrP UTR inh,Sa RN4220 lethal,Autofluor counter
O=S(=O)(NCC1CCCO1)c1ccc(Br)cc1 (configuration not stated),-4.3,5.3,21.8,14.2,-11.2,5.6,3651
C=C(C)C(=O)Nc1cccc(C2=NOC3(C2)CC(C(N)=O)N(C(=O)C(C)=CC)C3)c1 (configuration not stated),.,-8.2,9.9,17.5,.,7.5,.
CCC1CCCCN1C(=O)Nc1cccc(NC(=O)N2CCCCC2CC)c1 (configuration not stated),6.8,4.0,.,.,-5.1,-2.2,4708
C=CCOC(=O)C(=O)C=Cc1coc2ccccc2c1=O,.,4.5,6.1,0.3,.,8.8,.
Cc1cccc(NC(=O)C2CCCN(S(=O)(=O)c3cccc4nonc34)C2)c1 (configuration not stated),-1.4,-0.5,1.2,-6.9,-24.9,8.5,3483
COC(=O)c1ccc(C(C(=O)NCc2ccccc2)N(Cc2cccs2)C(=O)c2cnccn2)cc1 (configuration not stated),-17.0,-0.7,-17.7,-2.9,3.0,-6.3,9176
COc1ccc(C(=O)NCCCNC(=O)c2cccnc2)cc1OC,6.8,2.8,4.7,-0.8,-5.1,-4.1,3288
CCCCNC(=O)C(=O)N/N=C/c1ccc(OCc2ccccc2)cc1,5.9,.,.,.,-12.6,.,4044
COc1ccc(NC(=O)c2cc3ccc(O)cc3o/c2=N\O)cc1,-3.2,.,.,.,-80.8,.,3887
O=C(O)c1nnn(-c2ccc([N+](=O)[O-])cc2)c1-c1ccccc1,-5.6,3.3,-11.5,-9.3,-27.5,3.4,5135

# Grouped by structure: those above containing an NH in an aromatic ring.
canonical_smiles,BJeLR lethal,ugtP null kill,Mtb hypoxia rep,Mtb hypoxia rep growth,PrP UTR inh,Sa RN4220 lethal,Autofluor counter
Cc1cc(=O)[nH]c(NN=Cc2c(C)nn(-c3ccccc3Cl)c2Cl)n1,.,9.3,-7.5,-3.1,.,18.4,.
COc1ccc(-c2[nH]c(-c3ccccc3)nc2SCC(=O)NC2CCCC2)cc1,6.6,-2.3,-2.5,-2.0,-7.8,-3.6,6422
O=C(N/N=C/c1c(O)n(-c2ccccc2)c(=S)[nH]c1=O)c1ccccc1,-4.1,-1.1,0.9,1.5,-31.1,-4.0,.
CCC(C)Sc1nc2ccccc2c(=O)[nH]1 (configuration not stated),-7.7,-14.9,5.0,7.6,-17.3,7.4,3001

# The results go on.
canonical_smiles,BJeLR lethal,ugtP null kill,Mtb hypoxia rep,Mtb hypoxia rep growth,PrP UTR inh,Sa RN4220 lethal,Autofluor counter
CC1(C)CCN2CCC(C)(C)c3c(O)ccc1c32,-1.5,.,.,.,-21.3,.,5204
NC(=O)c1cc([N+](=O)[O-])ccc1NCC1CCCCC1,.,-0.7,6.7,0.8,-22.8,2.8,4014
CCC1(c2ccc(-c3ccccc3)cc2)C(=O)NC(=O)NC1=O,0.5,8.5,-2.4,-5.5,3.9,11.3,3726
Cc1ccccc1NC(=O)CCc1c(C)nn(-c2ccc(N3CCCCC3)nn2)c1C,-9.9,12.2,12.7,-1.3,-20.7,0.9,4862
COc1ccccc1NC(=O)c1ccc(-c2nn(C)c(=O)c3ccccc23)cc1,14.4,1.8,-8.6,7.2,4.4,0.9,4128
Cc1nn(-c2ccccc2)c(Cl)c1C1C(C#N)=C(N)Oc2c1c(=O)oc1ccccc21 (configuration not stated),3.0,-3.3,.,.,-16.7,-1.4,4981
COc1ccc(CN2CCN(C(=O)CCC(=O)Nc3nnc(C4CCCCC4)s3)CC2)cc1F,5.4,7.7,13.7,9.4,-7.5,1.1,4401
Cc1cnc(CN(C)C(=O)C2CCC(=O)N(CCc3ccccc3)C2)[nH]1 (configuration not stated),-6.7,13.2,1.1,-9.7,-3.4,6.3,3850
O=S(=O)(NCc1cccs1)c1ccc(Br)cc1,0.8,0.0,4.9,2.4,-3.1,5.9,5340
O=C(NCCSc1ccccc1)c1ccccc1F,-12.7,.,.,.,-72.6,.,4316

# Continued:
canonical_smiles,BJeLR lethal,ugtP null kill,Mtb hypoxia rep,Mtb hypoxia rep growth,PrP UTR inh,Sa RN4220 lethal,Autofluor counter
COc1ccc(CCNC(=S)Nc2ccc(OC)cc2)cc1,-8.6,-1.7,-0.6,0.9,-30.6,-0.1,2616
C[C@]12CCC3C(CC[C@H]4C[C@@H](O)CC[C@]34C)[C@H]1CC[C@H]2O (some centres not stated),.,5.2,7.4,3.8,-20.2,8.7,4322
CC(C)c1ccc(NC(=O)c2ccc(NS(C)(=O)=O)cc2)cc1,4.2,3.8,0.1,11.3,-57.3,3.5,4457
N#CC(C#N)=C(N)CSc1cccc[n+]1[O-],-2.7,15.3,-3.8,4.1,-38.7,5.4,4626
O=C1c2ccccc2-c2nccnc21,1.3,-1.5,0.4,5.3,-1.4,3.9,8229
CC(=O)CC(O)CC(=O)C1OC(=O)C(C)CC=CCc2ccccc21 (configuration not stated),.,4.3,5.6,-2.5,.,4.2,.

# 6 compounds already listed, arranged by molar mass, falling.
canonical_smiles,BJeLR lethal,ugtP null kill,Mtb hypoxia rep,Mtb hypoxia rep growth,PrP UTR inh,Sa RN4220 lethal,Autofluor counter
COc1ccc(CN2CCN(C(=O)CCC(=O)Nc3nnc(C4CCCCC4)s3)CC2)cc1F,5.4,7.7,13.7,9.4,-7.5,1.1,4401
COc1ccc(NC(=O)CN(C)C(=O)c2c(-c3c(F)cccc3Cl)noc2C)cc1,-2.5,-8.5,-1.0,-4.9,0.0,-0.6,.
Cc1cccc(NC(=O)C2CCCN(S(=O)(=O)c3cccc4nonc34)C2)c1 (configuration not stated),-1.4,-0.5,1.2,-6.9,-24.9,8.5,3483
CC(=O)CC(O)CC(=O)C1OC(=O)C(C)CC=CCc2ccccc21 (configuration not stated),.,4.3,5.6,-2.5,.,4.2,.
COc1ccc(C(=O)NCCCNC(=O)c2cccnc2)cc1OC,6.8,2.8,4.7,-0.8,-5.1,-4.1,3288
CC1CN(CCCOc2ccccc2[N+](=O)[O-])CC(C)O1 (configuration not stated),3.3,12.9,2.9,2.8,-19.0,4.1,23581*

# From PubChem BioAssay
